Screening results from PubChem.
S aureus helic: blocks Staphylococcus aureus DNA helicase; actives 0.05% (n = 120,000); purified S. aureus helicase, fluorescence unwinding assay; about half of the hits fall short of the stated cut; inhibition, %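 (tested at about 80 µM)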;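 active = both duplicates at 50% or more, or one of them with a favoured structure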;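 also: 0% = mean of negative control wells and 100% = mean of positive control wells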
MgrA DNA FP: alters Staphylococcus aureus MgrA binding to DNA; fluorescence polarization; inhibition, %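 (about 10 µg/mL by stock and volumes)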; actives 0.13% (n = 84,000); AID 602314;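 active = above 50% in either of two replicates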;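 also: 0% = protein plus DNA without compound and 100% = DNA alone without protein; higher means less MgrA bound to DNA so lower polarization; one replicate is shown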
* = called active by the depositor; · = no result given. Some of the compounds tested; rates above refer to the full screens.

A first look, 20 compounds:
S aureus helic	MgrA DNA FP	compound
0	·	COc1ccccc1N1CCN(C(C)C(=O)NCC2CCCCC2)CC1 (centres undefined)
·	1.6	CC(=O)OCC(=O)[C@@]12OC(C)(C)O[C@@H]1CC1C3C[C@H](F)C4=CC(=O)C=C[C@]4(C)[C@@]3(F)[C@@H](O)C[C@@]12C (some centres undefined)
6	·	Cc1cccc(C(=O)Nc2nnc(-c3ccccc3C)s2)c1
-11	·	CC1CCN(C(=O)COC(=O)C2(S(=O)(=O)c3ccc(Br)cc3)CCCC2)CC1
4	2.1	Cc1ccc(S(=O)(=O)Nc2cc(C(=O)NC3CCCC(C)C3C)ccc2N2CCCCC2)cc1 (centres undefined)
-11	·	Cc1sc2ncnc(OCc3ccc(C#N)cc3)c2c1C
17	-0.7	Cc1cc(C)c(C#N)c(NC2CCCCC2)n1
-10	·	CCSc1nnc2c(=O)n(C)c(=O)n(C)c2n1
-13	1.0	O=C(NC(c1ccccc1)c1c(O)ccc2ccccc12)C1CCCCC1 (centres undefined)
-7	·	COc1ccc(Cl)cc1NC(=O)Cc1coc2cc(C)cc(C)c12
·	-2.2	Cn1cnc(S(=O)(=O)NCc2csc(-c3cccs3)n2)c1
4	-0.2	CCOC(=O)c1[nH]c(=O)[nH]c1CN(Cc1ccco1)Cc1[nH]c(=O)[nH]c1C(=O)OCC
·	0.1	CCN1C(=O)NC(c2ccc([N+](=O)[O-])cc2)C(C(=O)OCCOc2ccccc2)=C1C (centres undefined)
10	-1.4	COc1cc(OC)c2c(=O)c(-c3ccc(Cl)cc3)coc2c1
1	·	Cc1nn(-c2ccccc2)c(C)c1C(=O)N1CCCc2ccccc21
·	-1.8	Cc1ccccc1C(=O)Nc1nc2c(C)csc2c(=O)s1
7	·	O=C(CSc1nnc(N2C(=O)c3ccccc3C2=O)s1)NC1CC1
·	1.4	Cn1ccnc1S(=O)(=O)/C(C#N)=C/c1ccc(C(F)(F)F)cc1
8	0.4	CC(C)c1nc2ccc(NC(=O)C3CCCCC3)cc2[nH]1
9	·	N#Cc1cccc(NC(=O)CC(NC(N)=O)c2ccccc2Cl)c1 (centres undefined)

Main list, from the first entry:
S aureus helic	MgrA DNA FP	compound
0	·	COc1ccccc1N1CCN(C(C)C(=O)NCC2CCCCC2)CC1 (centres undefined)
·	1.6	CC(=O)OCC(=O)[C@@]12OC(C)(C)O[C@@H]1CC1C3C[C@H](F)C4=CC(=O)C=C[C@]4(C)[C@@]3(F)[C@@H](O)C[C@@]12C (some centres undefined)
6	·	Cc1cccc(C(=O)Nc2nnc(-c3ccccc3C)s2)c1
-11	·	CC1CCN(C(=O)COC(=O)C2(S(=O)(=O)c3ccc(Br)cc3)CCCC2)CC1
4	2.1	Cc1ccc(S(=O)(=O)Nc2cc(C(=O)NC3CCCC(C)C3C)ccc2N2CCCCC2)cc1 (centres undefined)
-11	·	Cc1sc2ncnc(OCc3ccc(C#N)cc3)c2c1C
17	-0.7	Cc1cc(C)c(C#N)c(NC2CCCCC2)n1
-10	·	CCSc1nnc2c(=O)n(C)c(=O)n(C)c2n1
-13	1.0	O=C(NC(c1ccccc1)c1c(O)ccc2ccccc12)C1CCCCC1 (centres undefined)
-7	·	COc1ccc(Cl)cc1NC(=O)Cc1coc2cc(C)cc(C)c12
·	-2.2	Cn1cnc(S(=O)(=O)NCc2csc(-c3cccs3)n2)c1
4	-0.2	CCOC(=O)c1[nH]c(=O)[nH]c1CN(Cc1ccco1)Cc1[nH]c(=O)[nH]c1C(=O)OCC
·	0.1	CCN1C(=O)NC(c2ccc([N+](=O)[O-])cc2)C(C(=O)OCCOc2ccccc2)=C1C (centres undefined)
10	-1.4	COc1cc(OC)c2c(=O)c(-c3ccc(Cl)cc3)coc2c1
1	·	Cc1nn(-c2ccccc2)c(C)c1C(=O)N1CCCc2ccccc21
·	-1.8	Cc1ccccc1C(=O)Nc1nc2c(C)csc2c(=O)s1
7	·	O=C(CSc1nnc(N2C(=O)c3ccccc3C2=O)s1)NC1CC1
·	1.4	Cn1ccnc1S(=O)(=O)/C(C#N)=C/c1ccc(C(F)(F)F)cc1
8	0.4	CC(C)c1nc2ccc(NC(=O)C3CCCCC3)cc2[nH]1
9	·	N#Cc1cccc(NC(=O)CC(NC(N)=O)c2ccccc2Cl)c1 (centres undefined)
17	·	Cc1cc(OC(=O)c2nn(-c3ccccc3)nc2C)n(-c2ccccc2)n1
6	·	O=C(O)CSCc1nc(-c2cnc3n(c2=O)CCS3)no1
-32	·	CC(C)OC(=O)CSc1nnc(-c2ccc(Cl)cc2Cl)o1
8	-2.3	Fc1ccc(-c2nc3c4ccccc4c4ccccc4c3[nH]2)cc1
2	·	Cc1cc(C(=O)Cn2cnc3ccccc3c2=O)c(C)n1-c1ccccc1
·	2.0	COc1ccc(OCC(O)CNC(=O)c2ccc(OC(F)(F)F)cc2)cc1 (centres undefined)
2	·	CC(C)=C1C2C=CC1C1C(=O)N(c3ccc4c(c3)OCO4)C(=O)C21 (centres undefined)
6	·	C/C(=N\OC(=O)c1ccc(C(F)(F)F)cc1)c1ccc[nH]1
-18	0.2	COc1ccc2c(-c3ccccc3)cc(=O)oc2c1OC
23	2.1	Cn1c(NN)nc2sc3c(c2c1=O)CCCC3
19	·	Cc1nc2ccccc2nc1OCc1ccc(Br)cc1
-1	-0.2	COC(=O)C(CC(C)C)N1C(=O)c2cc(Cl)c(Cl)cc2C1=O (centres undefined)
·	-1.8	Cc1cc(C)c(N=c2oc(C(C)(C)C)cs2)cc1C
5	19	C=CCOc1ccc(-c2nn3c(-c4ccoc4C)nnc3s2)cc1
2	-3.7	Cc1cc(C)cc(C(=O)NN2CCOCC2)c1
-2	4.2	Cc1cc(C)nc(SC2CCCCC2=O)n1 (centres undefined)
-9	·	CC(c1ccco1)N(C(=O)Nc1ccc(Cl)cc1)c1ccccn1 (centres undefined)
·	-0.8	CNC(=S)NCc1sc2ccccc2c1C
-10	0.4	Cc1ccc(S(=O)(=O)N2Cc3ccccc3CC2C(=O)NC(C)C)cc1 (centres undefined)
15	4.0	O=C(C(c1ccccc1)c1ccccc1)N1CCc2ccccc21
-4	·	CN(C)C(=S)NCc1ccccc1
-24	·	Cc1onc(-c2c(Cl)cccc2Cl)c1C(=O)NC(C)(C)C
19	·	CCc1nn(CC(=O)NCCCN2CCC(Cc3ccccc3)CC2)c(=O)c2cc3sccc3n12
1	0.2	O=C(CN(Cc1cccs1)C(=O)c1csnn1)NC1CCCC1
·	-3.4	Cc1ccc(N=Cc2nc(-c3ccc(Br)cc3)oc2O)c([N+](=O)[O-])c1
2	-0.4	CCCc1nc2ccc(NC(=O)c3ccco3)cc2c(=O)n1Cc1ccccc1Cl
-11	-5.7	Cc1c(C(=O)Nc2nccs2)nnn1-c1ccccc1Cl
13	-0.9	CCCCC(CC)C(=O)Nc1cc(OC)ccc1OC (centres undefined)
30	·	Cc1nc(-c2noc(C(=O)NN)n2)cs1
·	2.4	COc1c2ccoc2nc2c(OC)c(OCC(O)C(C)(C)O)ccc12 (centres undefined)
10	0.3	CCNC(=O)N1c2ccccc2Sc2ccccc21
-3	-5.3	Cc1cc2c(cc1C)C(C)CC(C)(C)N2 (centres undefined)
·	1.7	O=C(Nn1c(-c2ccc(Br)cc2)nc2ccccc2c1=O)c1ccccc1[N+](=O)[O-]
-7	·	CC(C)CN(C(=O)CN1CCC(C)CC1)c1c(N)n(CC(C)C)c(=O)[nH]c1=O
22	·	CC(C)CS(=O)(=O)c1oc(-c2cccs2)nc1S(=O)(=O)c1ccccc1
·	-3.0	Cc1onc(-c2ccccc2)c1-c1csc(CC#N)n1

(cont.)
S aureus helic	MgrA DNA FP	compound
-6	·	NC(=O)NC(Cc1ccccc1)C(=O)NC1CCCC1 (centres undefined)
·	-1.9	O=C(O)C(O)C(O)C(=O)Nc1ccc(Cl)cc1 (centres undefined)
·	0.1	O=C1OCCN/C1=C/C(=O)c1ccccc1
·	-1.4	Fc1ccccc1-c1ncc(-c2ccc(Cl)cc2)o1
7	0.9	O=C(Nc1cc(Cl)ccc1Cl)C(O)(c1ccccc1)c1ccccc1
·	-1.1	COC(=O)[C@H](Cc1ccc(O)cc1)NC(=O)c1cccc(Cl)c1
0	1.4	CC(C)COc1ccc2c3c(c(=O)oc2c1)CCCC3
10	·	CCOC(=O)C1=C(C)NC(=O)C(C(N)=O)C1c1ccccc1 (centres undefined)
10	·	O=C(Nc1ccc(Oc2ncnc3sc4c(c23)CCC4)cc1)c1ccco1
5	-1.1	CN(c1ccc(O)cc1)c1nc(-c2cccs2)cs1
11	1.4	Cc1ccc2c(Sc3ccc(Cl)cc3)c(C(=O)NCCN3CCOCC3)[nH]c2c1
·	2.3	CCCN(CCC)S(=O)(=O)c1ccc(-c2nc3ccc(C)cc3o2)cc1
-6	0.5	O=C(COC(=O)c1c(F)cccc1F)c1cccc(Cl)c1
4	·	CCc1ccc(C(=O)CSc2nnc(CN3CCCC3)n2Cc2ccccc2)s1
10	-1.4	CC(C(=O)NCC1(c2ccccc2)CCOCC1)N1CCCCC1 (centres undefined)
-108	·	CCOc1cccc(=O)c2c(C)oc(C)c12
13	-0.8	Cn1c(Cn2cnc3ccccc32)nc2ccccc21
-10	-3.2	Cc1ccc(S(=O)C(F)(F)F)cc1 (centres undefined)
6	-3.8	O=C(CSc1nc2ccc(NC(=O)C3CCCCC3)cc2s1)NCC1CCCO1 (centres undefined)
5	-1.5	N#CN=C(N)c1sc2nc3c(cc2c1N)CCCCC3
-3	·	O=C(O)COc1cc(Br)c(Br)c(Br)c1O
-5	2.0	COc1cc2c(cc1OC)CN(C(=O)c1ccco1)CC2
7	0.4	CCN1CCN(c2cc(C)c3cc(NC(=O)c4ccncc4)ccc3n2)CC1
-13	·	COc1ccc(C2C3=C(CCCC3=O)OC3=C2C(=O)CCC3)cc1O
2	1.5	CCCCNC(=O)C1OCCc2ccccc21 (centres undefined)
·	-1.6	COc1ccccc1C(=O)Nc1ccc2nc(SC)sc2c1
13	-1.2	C/C(=N\N)c1c(C)cc(C)[nH]c1=O
·	0.1	COc1cc(-c2nc3ccccc3c(=O)n2NC(=O)Cn2nc(C(F)(F)F)cc2C(F)(F)F)cc(OC)c1OC
·	11	CC1=NN(c2ccc(N=Cc3ccc(Cl)c(Cl)c3)cc2)C(=O)C1
-12	1.9	CC(C)c1ncc(C(O)c2ccccc2)n1C (centres undefined)
37	·	CCOc1ccccc1NC(=O)Cc1ccc(OCc2c(C)noc2C)cc1
2	·	CCn1c(CNc2ccc(C(=O)O)cc2)nc2ccccc21
-3	·	CC(C)(CNc1nnnn1-c1ccccc1)N1CCOCC1
·	-1.0	COC(=O)C1=C(C)NC2=C(C(=O)CCC2)C1c1ccc(-c2cccs2)s1 (centres undefined)
20	-2.7	CCCC(C)NC(=O)Cc1ccc(Cl)cc1 (centres undefined)
5	·	Cc1nn(-c2ccccc2)c2c1-c1sc(C(=O)N3CCCC3)cc1CC2
14	·	Nc1cccc(Cl)c1F
13	·	O=C(c1cc2ccccc2oc1=O)n1cc(Br)cn1
15	-0.5	Clc1ccc(-c2nn3c(-c4ccco4)nnc3c3ccccc23)cc1
2	-3.0	COC(=O)Cn1nnc(-c2nnn(COC(C)=O)c2-c2ccccc2)c1-c1ccccc1
4	-1.5	NNC(=O)N/N=C/c1ccc(I)cc1
-7	·	O=S(=O)(NCc1cc(F)cc2c1OCOC2)c1cccc2nonc12
·	3.3	NC[C@@H]1O[C@H](O[C@@H]2[C@@H](CO)OC(O[C@@H]3[C@@H](O)[C@H](N)C[C@H](N)[C@H]3OC3O[C@H](CN)[C@@H](O)[C@H](O)[C@H]3N)[C@@H]2O)[C@H](N)[C@@H](O)[C@@H]1O (some centres undefined)
19	·	OC1CCC(Nc2ccnc3cc(Cl)ccc23)CC1 (centres undefined)
-6	·	COc1ccccc1CNC(=O)COc1ccc(-n2ccnc2)cc1
11	·	N#Cc1c(-c2ccccc2)cc(C2CC2)c(C#N)c1N
12	0.4	O=C1CCN(c2ccccc2)N1CCOc1ccc(Cl)cc1Br
10	-2.5	Cc1ccc(S(=O)(=O)CCSc2nc(C3CC3)cc(C(F)(F)F)c2C#N)cc1
-6	0.2	CCOC(=O)/C=C(/C)Nc1ccc(OC)cc1
·	0.5	O=C1Nc2ccccc2/C1=N\N=C\c1cc(Br)cc(Br)c1O
·	-1.5	Cc1ccc(/C=C2\SC(=S)N(CCC(=O)Nc3sc4c(c3C(N)=O)CCCC4)C2=O)cc1
·	-3.8	CCN(c1cccc2ccccc12)S(=O)(=O)c1ccccc1
10	·	Cn1cc(Br)c(-c2ccc(NC(=O)Nc3ccccc3)cc2)n1
10	·	COC(=O)c1cn[nH]c1N
10	0.0	COc1ccc(CNC(=O)Cc2cn(C)c3ccccc23)c(OC)c1
·	-3.2	COc1ccc(OC)c2c(=O)cc(C(=O)O)oc12

Next results:
S aureus helic	MgrA DNA FP	compound
-2	·	CC1Cc2cc(/C(O)=C3/C(=O)C(=O)N(CCN(C)C)C3c3cccs3)ccc2O1 (centres undefined)
·	-2.0	CCOC(=O)C1=C(C)N=c2s/c(=C\c3cccc(Br)c3)c(=O)n2C1c1ccc(OC(C)=O)cc1 (centres undefined)
·	-1.8	Cc1ccc2oc(=O)n(CC(=O)N3CCOCC3)c2c1
1	3.4	CC(Sc1nnc(-c2ccco2)n1-c1ccccc1)C(=O)NC(c1ccccc1)c1ccccc1 (centres undefined)
19	1.3	Cc1ccc(NS(=O)(=O)c2cccc(C(=O)Nc3cc(C)on3)c2)cc1
-14	·	CC(C)=NNC(=S)NC1CC2CCC1C2 (centres undefined)
·	0.4	CN(C)CCNc1ncnc2scc(-c3ccccc3)c12
8	·	Cc1cccc(-c2nc(C)c(CCC(C)C)c(=O)[nH]2)c1
17	·	Cc1ccc(NC(=O)CC2(CC(=O)O)CCCC2)cc1
7	-0.4	CC(C)(CSc1ccccn1)NS(=O)(=O)c1ccccc1
0	·	O=C(COC(=O)c1ccc2c(c1)OCO2)Nc1ccc(S(=O)(=O)N2CCCC2)cc1
1	-5.7	CC(C)(C)c1ccccc1OCC(=O)O
0	-1.7	CNC(=O)C1=NCCCc2cc(OC)c(OC)cc21
6	-3.4	COc1ccc(Cl)cc1N(C(C)=O)c1nc(C)cc(C)c1C#N
4	·	O=C(OCC(=O)c1ccccc1)C1=COCCO1
13	1.8	COc1cccc(C(=O)NCCO)c1OC
12	·	CCCCc1nc2ccccc2[nH]1
